MARV entry inh – blocks Marburg virus binding to or entry into cells; AID 540276; Marburg virus pseudotyped entry inhibition, cell reporter; control for the full effect not named in the record; about a third of the inactives were read at about 46 µM; 1.8% of 300,000 active; Potency, µM (top dose mostly 37.8 µM), for the others: top-dose activity change, negative = inhibition, usual class: inhibitors; active = well fitted inhibition curve with a large enough effect; inconclusive = small, poorly fitted or top-dose-only effect, or effect the other way; inactive = flat fitted curve, though single readings scatter; tested in HEK293 cells; about a fifth of its hits are not listed in these tables; also: % is scaled to controls: 0 for no effect and ±100 for the full control effect; luciferase read-out
LASV entry inh – blocks Lassa virus binding to or entry into cells; Lassa virus pseudotype entry inhibition, cell reporter; control for the full effect not named in the record; Potency, µM (titrated, usually from 37.9 µM), for inactives: at the top dose activity change, negative = inhibition, actives largely listed as inhibitors; 1.2% of 300,000 active; AID 540256; active means well fitted inhibition curve with a large enough effect; inconclusive means small, poorly fitted or top-dose-only effect, or effect the other way; inactive means flat fitted curve, though single readings scatter; tested in HEK293 cells; also: % is scaled to controls: 0 for no effect and ±100 for the full control effect; nearly all actives have a fitted effect of over 50% in size; luciferase read-out
StopGo reporter – FMDV 2A StopGo reporter, luciferase signal | human cells with a luciferase reporter of 2A StopGo recoding; control for the full effect not named in the record | Potency, µM (series often up to 57.9 µM), for inactives: at the highest dose signal change, negative = less light | 1.2% of 410,000 active | AID 1159524; active = well fitted falling curve with a large enough effect; inconclusive = small, poorly fitted or top-dose-only effect; inactive = no such curve, though single readings can be large or run the other way; tested in HEK293T cells; also: % is scaled to controls: 0 for no effect and ±100 for the full control effect; nearly all actives have a fitted effect of over 45% in size; luciferase light after 4 h
Cruzain inh Det – blocks cruzain activity in presence of Triton detergent; P25779; Potency, µM, for the others: max response, negative = inhibition, most hits filed as inhibitors; AID 1478; purified cruzain, Z-FR-AMC fluorescence, 0.01% Triton; 0.43% of 200,000 active;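 also: plate controls were neutral wells for no effect and buffer without enzyme for full effect; nearly all actives have a fitted effect of over 40% in size; top concentration of the series not given in the record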
Target sequence (P25779 123-467 limits assumed): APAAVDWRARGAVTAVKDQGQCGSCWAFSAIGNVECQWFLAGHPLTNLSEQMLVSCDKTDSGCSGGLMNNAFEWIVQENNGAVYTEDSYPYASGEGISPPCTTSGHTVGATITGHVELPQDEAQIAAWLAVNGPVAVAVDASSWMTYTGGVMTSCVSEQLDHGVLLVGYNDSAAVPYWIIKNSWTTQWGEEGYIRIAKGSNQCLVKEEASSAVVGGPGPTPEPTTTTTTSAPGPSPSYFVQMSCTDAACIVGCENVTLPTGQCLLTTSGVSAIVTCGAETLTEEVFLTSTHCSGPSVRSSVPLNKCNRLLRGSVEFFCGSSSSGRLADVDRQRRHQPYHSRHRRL
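Detergent-containing arm of a paired screen for aggregation-based inhibition: 0.01% Triton X-100 present. Cruzain at 1.5 nM cleaved 2 uM Z-FR-AMC at pH 5.5 with 5 mM DTT; AMC fluorescence gain over 60 s measured activity.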
NS1 inh – inhibitors of influenza NS1 protein function; S. cerevisiae slowed by influenza A NS1, growth recovery by OD600; Potency, µM (titrated, usually from 46.1 µM), for inactives: top-dose activity, positive = more growth; 0.4% of 270,000 active; AID 2326; active means well fitted rising curve with a large enough effect; inconclusive means small, poorly fitted or top-dose-only effect; inactive means no such curve, though single readings can be large or run the other way; also: nearly all actives have a fitted effect of over 50% in size
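Read-out: OD600 growth recovery of NS1-expressing budding yeast. Cells grown overnight at 30C in -URA glucose medium, washed, resuspended and diluted 1:100 in 2% galactose assay medium, pH 6.0. Same strain lacking NS1 served as positive control.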
RE007 growth inh – less growth of the S. pombe RE007 Vpr strain; S. pombe RE007 Vpr strain, BacTiter-Glo ATP luminescence, 24 h; control for the full effect not named in the record; 0.21% of 360,000 active; Potency, µM (titrated, usually from 92.2 µM), for inactives: at the highest dose activity change, negative = less growth; active = well fitted falling curve with a large enough effect; inconclusive = small, poorly fitted or top-dose-only effect; inactive = no such curve, though single readings can be large or run the other way;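 also: % is scaled to controls: 0 for no effect and ±100 for the full control effect; nearly all actives have a fitted effect of over 50% in size; the assay follows cell death caused by Vpr and the record does not say whether a fall means rescue or toxicity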
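Fission yeast RE007 carrying one integrated HIV-1 vpr copy, seeded at OD 0.01 in PMG+AL medium with 23 nL pinned compound. Grown 24 h at 30 degrees; viability read by BacTiter-Glo luminescence after 5 min.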
SARS PLpro yeast – blocks SARS-CoV papain-like protease in a yeast assay; Potency, µM (highest dose often 32.9 µM), for inactives: at the highest dose activity, positive = growth rescue; S. cerevisiae expressing SARS-CoV PLpro, growth rescue; control for the full effect not named in the record; AID 485353; 0.19% of 330,000 active; active means well fitted rising curve with a large enough effect; inconclusive means small, poorly fitted or top-dose-only effect; inactive means no such curve, though single readings can be large or run the other way; also: 0% is about no effect; nearly all actives have a fitted effect of over 55% in size; growth read by luminescence after 48 h
Cruzain noTriton – cruzain (T. cruzi) inhibition without detergent; 2.3% of 200,000 active; Potency, µM, for the others: max response, negative = inhibition, hits mostly inhibitors; purified cruzain, Z-FR-AMC fluorescence, no detergent; P25779;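 also: plate controls were enzyme without inhibitor for no effect and buffer without enzyme for full effect; nearly all actives have a fitted effect of over 40% in size; top concentration of the series not given in the record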
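Purified cruzain at 1.5 nM, pre-incubated 15 min with compound at room temperature in 100 mM sodium acetate pH 5.5, 5 mM DTT, 0.00005% Triton X-100. Reaction started with 2 uM Z-FR-AMC; AMC fluorescence increase over 60 s gives rate.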
* marks the source's active call; other numbers are inactive results; ? = inconclusive; . = no result given; & = joins results of further samples; [ ] = dose if it differs, or a comment. Unless noted, calls follow the shape of the dose curve; as a rule, active = well fitted curve in the direction sought with a large enough effect; inconclusive = small, poorly fitted or top-dose-only effect, or another doubt; inactive = no such curve, though single readings can be large; an effect the other way counts as inactive or inconclusive. Potency is read from the fitted curve at half-maximal effect.

SMILES	MARV entry inh	LASV entry inh	StopGo reporter	Cruzain inh Det	NS1 inh	RE007 growth inh	SARS PLpro yeast	Cruzain noTriton
O=C(NCc1ccccc1)/C(NC(=O)c1ccccc1)=C(/Sc1ccccn1)c1ccccc1	-18%	-20%	34%[activator]	-2.3%	8%	16%	11%	7%
COc1ccc(Cn2c(=O)cc(C)[nH]c2=S)cc1	.	.	-2%	.	3%	2%	3%	.
O=C(CCCN1C(=O)/C(=C/c2cccc(Br)c2)SC1=S)N1CCOCC1	-4%[46.1 µM]	4%[46.1 µM]	-3%	.	-3%	0%	0%	.
O=C(Nc1ccccc1)c1ccc(NCc2ccco2)c(S(=O)(=O)N2CCOCC2)c1	6%	?	-4%	-2.4%	?	9%	0%	-8%
C=C(C)c1cccc(C(C)(C)NC(=O)NCC2COCCO2)c1 (stereo not given)	-20%	16%	15%	0.7%	18%	8%	10%	25%
CC1CCCN(S(=O)(=O)c2ccc(S(=O)(=O)N3CCC4(CC3)OCCO4)cc2)C1 (stereo not given)	7%	-1%	8%	-3.0%	0%	16%	1%	12%
CCOC(=O)c1c(CSC(=N)N)n(-c2ccccc2)c2cc(Br)c(OC(C)=O)cc12	?	-16%	-25%	.	?	8%	0%	.
Cc1cc(C)cc(NC(=O)C2CCCN(c3ncccn3)C2)c1 (stereo not given)	8%[46.1 µM]	-1%[46.1 µM]	19%	.	-2%	4%	1%	.
Cc1nc2ccccc2n1CC(=O)NC1CCCCCC1	.	.	?	.	0%	15%	-1%	.
COc1ccc(NCc2ccccc2[N+](=O)[O-])cc1OC	-9%	10%	-14%	-2.5%	24%	-21%	-12%	4%
COc1ccc(Cn2nnnc2C(CC(C)C)N2CCC(C(N)=O)CC2)cc1 (stereo not given)	2%[46.1 µM]	26%	-4%	.	-4%	-17%	0%	.
O=C(NCCc1ccccc1)c1ccc2c(c1)N(Cc1ccccc1)C(=O)c1ccccc1S2(=O)=O	-16%[46.1 µM]	?	-1%	-0.5%	.	.	.	20µM*
O=C(O)/C(=C\c1cn(-c2ccccc2)nc1-c1cccnc1)NC(=O)c1ccccc1	.	.	-9%	.	2%	1%	0%	.
CNS(=O)(=O)c1ccc(NC(=O)c2cnn3c(C(F)F)cc(-c4ccccc4)nc23)cc1	-4%&-4%[46.1 µM]	-18%[46.1 µM]	?	-0.6%	.	1%	0%	0%
O=C1CCc2cc(NS(=O)(=O)c3cc(F)ccc3F)cc3c2N1CC3	6%	-13%	20%	.	.	7%	0%	.

Some of the entries so far, with values under each structure.
Values run as follows: MARV entry inh | LASV entry inh | StopGo reporter | Cruzain inh Det | NS1 inh | RE007 growth inh | SARS PLpro yeast | Cruzain noTriton
CNS(=O)(=O)c1ccc(NC(=O)c2cnn3c(C(F)F)cc(-c4ccccc4)nc23)cc1
    -4%&-4%[46.1 µM] | -18%[46.1 µM] | ? | -0.6% | . | 1% | 0% | 0%
O=C1CCc2cc(NS(=O)(=O)c3cc(F)ccc3F)cc3c2N1CC3
    6% | -13% | 20% | . | . | 7% | 0% | .

Going on with the list.
SMILES	MARV entry inh	LASV entry inh	StopGo reporter	Cruzain inh Det	NS1 inh	RE007 growth inh	SARS PLpro yeast	Cruzain noTriton
COc1ccc(NC(=O)c2ccc(N3CCCC3=O)cc2)cc1Cl	-16%	-11%	13%	.	.	3%	2%	.
CCc1c(Nc2ccccc2Cl)nc(N)[nH]c1=O	-3%[46.1 µM]	3%[46.1 µM]	9%	.	.	8%	.	.
COCC(C)n1c(C)cc(C(=O)CSc2ccc(NC(C)=O)cc2)c1C (stereo not given)	-1%	?	-1%	2.6%	-2%	19%	3%	0%
O=C(COC(=O)COc1ccccc1[N+](=O)[O-])Nc1ccc2c(c1)OCO2	14%[46.1 µM]	15%[46.1 µM]	4%	.	.	-17%	0%	.
O=c1c2ccccc2nc(/C=C/c2cccc3ccccc23)n1-c1ccccc1Cl	.	-13%[46.1 µM]	22µM*	-0.3%	.	.	.	?
COC(=O)c1c(NC(C)=O)sc(C(=O)Nc2ccccc2C)c1C	4%	22%	8%	.	2%	4%	0%	.
O=c1c2ccccc2ncn1CCc1ccncc1	9%	5%	-6%	.	.	-16%	.	.
CCC(C)NCC(=O)Nc1ccc([N+](=O)[O-])cc1C(=O)Nc1ccccc1F (stereo not given)	.	.	-5%	.	-1%	0%	2%	.
CCN(Cc1ccccc1)S(=O)(=O)c1ccc(C(=O)N(CCCN(C)C)c2nc3c(F)cccc3s2)cc1	8.9µM*	?	3%	.	16%	12%	20%	.
COc1cccc(CNC(=O)c2cc3c(=O)oc4ccc(C)cc4c3s2)c1	24%[46.1 µM]	11%[46.1 µM]	-3%	0.7%	.	.	.	6%
O=C1CC(c2nnc(Cc3c(F)cccc3Cl)o2)CN1c1ccccc1 (stereo not given)	-9%[46.1 µM]	-2%[46.1 µM]	9%	-2.7%	.	.	.	-11%
Cc1ccsc1C(=O)NN=C1CCCCCC1	.	.	35%[activator]	.	-11%	-7%	-4%	.
CC12CCC(C(=O)Nc3nc4ccccc4s3)(OC1=O)C2(C)C (stereo not given)	?	3%[46.1 µM]	13%	.	0%	-20%	0%	.
COc1ccc2oc(=O)c(C(=O)NCCc3c(C)[nH]c4ccc(F)cc34)cc2c1	?	?	-25%	-7.4%	.	.	.	-22%
CCOc1cc(NC(=S)NCC2CCCO2)c(OCC)cc1NC(=O)CC(C)C (stereo not given)	-1%	?	-4%	.	4%	-22%	0%	.
COc1cc(CNC2CCCCCCC2)c(Br)cc1OCCO	.	.	-5%	.	-1%	-6%	6%	.
COc1ccccc1C(=O)COC(=O)CSCC(=O)Nc1cc(C)on1	-23%	12%	8%	.	.	10%	-3%	.
CCOP1(=S)Oc2cc3c(cc2C(C(=O)OC)(C(F)(F)F)O1)OCO3 (stereo not given)	-19%	-5%	3%	8.8%	-89%	1%	-4%	-5%
Cc1cccc(OCC(=O)Nc2ccccc2F)c1	?	-12%	16%	.	-4%	4%	-1%	.
O=C(c1cccs1)N1CCC(c2nc(-c3ccc(S(=O)(=O)N4CCOCC4)cc3)no2)CC1	-27%	?	?	-1.1%	-8%	-9%	4%	?
CSCCC(=O)N1CCCC(CNC(=O)c2ccc(-c3ccccc3)cc2)C1 (stereo not given)	.	.	-5%	.	-6%	2%	0%	.
O=C(Nc1cc(C(F)(F)F)ccc1N1CCCCC1)c1cccc([N+](=O)[O-])c1	-29%	-1%	-25%	-0.9%	-2%	-3%	-2%	-3%
Cc1cccc(N=C2CCCC2C(=O)Nc2cccc(C)c2C)c1C (stereo not given)	0%[46.1 µM]	-10%[46.1 µM]	-9%	.	.	-4%	.	.
Cc1ccccc1C(=O)Nc1cccc(C(=O)Nc2ccccc2C(=O)O)c1	.	.	24%	.	11µM*	0%	-4%	.
O=C(NC(=O)N1CCSCC1)c1c(Cl)cccc1Cl	0%[46.1 µM]	16%[46.1 µM]	2%	.	1%	-7%	1%	.
O=C(NCCc1ccccc1)C1CCC(=O)N(Cc2ccc(Cl)cc2)C1 (stereo not given)	12%	0%	3%	.	-1%	5%	-3%	.
Cc1ccccc1NC(=O)/C(=C/c1ccco1)c1ccccc1	-23%	-7%	0%	-3.9%	-10%	-21%	-5%	3%
COc1cc2c(=O)n(CCC(=O)NCC3CCCO3)c(=O)n(CC(=O)Nc3c(C)cccc3C)c2cc1OC (stereo not given)	2%[46.1 µM]	-9%[46.1 µM]	0%	-0.3%	.	.	.	-4%
CC(C)(C)OC(=O)N1CCC(Cc2cc(-c3ccccc3)no2)(C(=O)O)CC1	.	.	-17%	.	-57%	18%	0%	.
Cc1ccc(NC(=O)CCN2C(=O)C3CCCCC3C2=O)cc1[N+](=O)[O-] (stereo not given)	-15%[46.1 µM]	-8%	7%	.	.	-13%	?	.
O=c1c2ccccc2nc(SCc2cn3ccsc3n2)n1-c1ccc(F)cc1	?	11µM*	?	1.6%	-18%	20%	-3%	?
COc1ccc(CC(=O)Oc2ccc(Br)cc2F)cc1S(=O)(=O)N1CCOCC1	1%	8%	-17%	.	.	-27%	-1%	.
COc1ccc(C2=C(N3CCN(c4cccc(C)c4)C(C)C3)c3ccccc3C2=O)cc1 (stereo not given)	?	?	0%	-25%	.	.	.	-25%
Cc1cccc(NC(=O)CSc2nc(-c3cccs3)cc(C(F)(F)F)c2C#N)c1C	.	5%[46.1 µM]	3%	-1.4%	.	.	.	6%
O=C(Oc1ccc2ccccc2c1)c1cncc(Br)c1	?	0%	-7%	3.2%	10%	-21%	8%	?
CCN(CC(=O)Nc1ccccc1OC)CC(=O)Nc1ccccc1-c1ccccc1	?	?	-18%	.	.	-7%	0%	.
CCOC(=O)CNC(=O)Cn1cnc2c(nnn2-c2cccc(OC)c2)c1=O	.	.	17%	.	-8%	7%	-2%	.
CCCn1c(=NC(=O)CCS(=O)(=O)c2ccccc2)sc2cc(S(N)(=O)=O)ccc21	1%	2%	3%	.	.	5%	-6%	.
CC1=Nn2c(nc(-c3ccccc3)c2-c2ccccc2)NC(=O)C1Br (stereo not given)	3%[46.1 µM]	14%	-20%	-3.5%	5%	-6%	-3%	20%
C=CCn1c(SCc2cccc(OC)c2)nnc1-c1ccncc1	.	.	-12%	.	1%	2%	-7%	.
Cc1c(C)c2ccc(OCC(=O)N3CCOCC3)c(C)c2oc1=O	-1%[46.1 µM]	3%[46.1 µM]	21%	.	.	2%	-2%	.

Part of the list above in order of SMILES length, smallest number first.
SMILES	MARV entry inh	LASV entry inh	StopGo reporter	Cruzain inh Det	NS1 inh	RE007 growth inh	SARS PLpro yeast	Cruzain noTriton
O=c1c2ccccc2nc(SCc2cn3ccsc3n2)n1-c1ccc(F)cc1	?	11µM*	?	1.6%	-18%	20%	-3%	?
Cc1cccc(NC(=O)CSc2nc(-c3cccs3)cc(C(F)(F)F)c2C#N)c1C	.	5%[46.1 µM]	3%	-1.4%	.	.	.	6%
COc1ccc(C2=C(N3CCN(c4cccc(C)c4)C(C)C3)c3ccccc3C2=O)cc1 (stereo not given)	?	?	0%	-25%	.	.	.	-25%

Bioassay records from PubChem.
